Assay outcomes as filed in PubChem.
Ba CapD inh – inhibitors of Bacillus anthracis CapD enzyme; purified CapD enzyme, fluorescence intensity read-out; stronger effect = lower value; some hits fall short of the stated cut; 0.23% of 140,000 active; z-score (concentration not given with the values);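 active = z-score under -4 in either of two replicates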;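 also: stock transfer was 100 nL into about 40 µL; score is relative to mean and spread of the plate; one replicate is shown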
AID504770 – growth inhibitors of E. coli YBA685 in a screen for V. cholerae RctB (chromosome II replication) inhibitors; 0.27% of 130,000 active; E. coli YBA685 rctB-dependent plasmid, OD600 growth, 3 h; stronger effect = lower value; z-score (no concentration beside the values);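 active = z-score under -2 on both plates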;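 also: wells of about 30 µL received 100 nL stock; score is relative to mean and SD of the test wells; the first replicate is given; strong numbers were not always called active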
Active calls of the source: *; . = no result given.

SMILES	Ba CapD inh	AID504770
COc1ccc(-c2nc3sc4c(c3c(=O)o2)CCCC4)cc1OC	0.045	.
CCc1cc(C(=O)c2ccc(OC)cc2)c(NC(=O)CSCC(=O)O)s1	-1.9	-0.75
C=CCc1cccc2cc(C(=O)NCCC3=CCCCC3)c(=O)oc12	0.84	-0.1
O=C(CSc1nnc(-c2ccco2)o1)c1ccc([N+](=O)[O-])cc1	0.73	.
COC(=O)Cn1c(CN2CCN(C(=O)c3ccco3)CC2)nc2c1c(=O)n(C)c(=O)n2C	-0.43	.
COc1cc(-c2c(C#N)c(N)n3c(nc4ccccc43)c2C#N)ccc1OC(=O)N(C)C	0.33	.
Cc1cccc(N2CCNCC2)c1	-1.4	1.8
Cn1ccnc1C(=O)c1cc(Sc2ncccc2C#N)nc2ccccc12	.	-0.05
CN(C)c1nnnn1Cc1ccc(Cl)cc1Cl	0.23	-0.15
CC1CCN(C(=O)c2ccc(-c3nn(C)c(=O)c4ccccc34)cc2)CC1	0.49	1.4
COC(=O)c1c(C)oc2ccc(OC(=O)c3ccc(OC)cc3)cc12	0.41	-1.6
CCOC(=O)c1c(N2CCCC2=O)sc(C)c1CC	.	-0.5
O=C(O)CC12CC3CC(CC(C3)C1)C2	0.08	.
O=C(COC(=O)c1n[nH]c2ccccc12)Nc1ccc(S(=O)(=O)N2CCCC2)cc1	.	1.1
O=C(Cn1nnc(-c2ccccc2F)n1)NCc1ccc2c(c1)OCO2	0.22	1.4
CCOC(=O)c1sc2nc(CC(=O)OC)nc(N3CCN(c4ccc([N+](=O)[O-])cc4)CC3)c2c1C	0.18	.
CN1C(=O)c2ccccc2Sc2ccc(NC(=O)N3CCCCC3)cc21	0.06	0.1
Cc1cccc(OCC(O)CN2C(C)CCCC2C)c1 (configuration not stated)	-0.68	-0.6
COC(=O)c1c(O)cc(=O)n2c1CCC2	.	-1.1
O=[N+]([O-])c1cccnc1Sc1ccccn1	-0.39	.
CC(=O)ON=C1CC(C)(C)NC(C)(C)C1	0.14	-0.45
COC(=O)c1scc2c(=O)cc(C(F)(F)F)[nH]c12	5.9	.
O=C(Nc1cccc(C(=O)N2CCN(c3ccccc3)CC2)c1)C1=CSCCO1	0.11	0.05
Cc1ccc(/C=C2\N=C(c3ccccc3)OC2=O)o1	-2.7	-0.7
Nc1c(C(=O)c2ccc(Cl)cc2)oc2nc(-c3ccco3)cc(-c3cccs3)c12	0.13	-0.6
COc1ccc(CCC(=O)NC2CCC(C)CC2)cc1 (configuration not stated)	.	0.6
Cc1ccc(NC(=O)c2sc3ncnc(N4CCOCC4)c3c2C)cc1F	-0.53	.
COc1cc(OC)c(NC2c3ncccc3C(=O)N2Cc2cccs2)cc1Cl (configuration not stated)	0.76	0.25
CC1CN(S(=O)(=O)c2ccc(NC(=O)C(C)Oc3ccc(F)cc3)cc2)CC(C)O1 (configuration not stated)	-0.3	1
COC(=O)COc1ccc(C)cc1C(C)(C)C	0.68	0.05
Cc1ccc(-n2c(C)cc(C=C3C(=O)NC(=O)NC3=O)c2C)cc1	.	-0.1
O=S(=O)(c1ccc2c(c1)OCCO2)N1CCCC1c1cccs1 (configuration not stated)	.	0.5
C(=N\c1nc2ccccc2[nH]1)/c1ccc2c(c1)OCO2	-0.54	-0.65
NC1=NC(=O)/C(=C/c2ccc(OC(=O)c3ccc(Cl)cc3)cc2)S1	-0.065	.
CC(=O)N1N=C(c2c(-c3ccccc3)c3cc(Br)ccc3[nH]c2=O)CC1c1ccco1 (configuration not stated)	4.1	.
COc1c(Cl)cc(Cl)cc1-c1c(C#N)c(N)n2c(nc3ccccc32)c1C#N	7.7	.
O=C1N=C2N(CCN3CCCCC3)c3ccccc3N2/C1=C/c1ccc([N+](=O)[O-])cc1	-0.34	.
Nc1n[nH]c(-c2ccccc2)c1Br	-0.18	.
COCCN1C(=O)/C(=C2/C(=O)N(Cc3ccc(C)cc3)c3ccccc32)SC1=S	-0.29	-0.45
Cc1cc(=O)oc2cc(OCC(=O)OCC(=O)Nc3ccc4c(c3)OCCO4)ccc12	.	0.5
CN1CC[n+]2cnc3ccccc3c21	95	0.1
O=C(CCCSc1cccc[n+]1[O-])c1ccc(F)cc1	.	0.15
COc1ccc(NC(=S)NCCCO)c(OC)c1	0.52	0.75
Cc1cc(F)ccc1S(=O)(=O)Nc1ccccc1C(=O)N1CCCCC1	.	-0.3
O=C(O)C(c1ccccc1)(c1ccccc1)c1ccccc1	0.32	.
Cc1nc(C(F)(F)F)ccc1C(=O)Oc1ccc(F)cc1F	-0.72	-0.35
COC(=O)c1csc2c(C(F)(F)F)cc(N3CCN(S(=O)(=O)c4ccccc4Cl)CC3)nc12	68	.
CCc1ccccc1NS(=O)(=O)c1ccc2[nH]cc(C(=O)NC(C)CC)c(=O)c2c1 (configuration not stated)	0.7	1.4
COCCNS(=O)(=O)c1c[nH]c(C(=O)OC)c1	-0.41	-1.5
Cc1cc(C)c(N=C=Nc2c(C)cc(C)cc2C)c(C)c1	0.3	.
Cc1cc2c(cc3c(SCC(=O)NCc4ccco4)nncn32)o1	0.46	-0.7
CCCn1c(Nc2ccccc2)nc2ccccc21	1.3	-0.55
Nc1nc(N)nc(SCC(=O)N2CCCC2)n1	.	-0.55
Cc1sc2nc(-c3ccccc3Cl)n(CC(=O)c3ccc(Br)cc3)c(=O)c2c1C	-0.2	.
CN(C)CC(C)(C)NS(=O)(=O)c1ccccc1	-0.17	-0.55
COc1ccc(NC(=O)C2CC(=O)N(CCc3ccc(Cl)cc3)C2)cc1 (configuration not stated)	-0.02	-0.9
N#Cc1c(Nc2ccc(Cl)cc2)n[nH]c1N	.	0.75
N#CC(C#N)=NNc1ccccc1OC(F)(F)F	-2.5	.
Cc1cc(C(=O)O)c(Cl)nc1C	.	-0.3
Nc1nc(S(=O)(=O)c2ccccc2)c(Cl)s1	0.94	-0.95

14 structures from above, sorted by number of heavy atoms, highest first.
SMILES	Ba CapD inh	AID504770
COC(=O)c1csc2c(C(F)(F)F)cc(N3CCN(S(=O)(=O)c4ccccc4Cl)CC3)nc12	68	.
CCc1ccccc1NS(=O)(=O)c1ccc2[nH]cc(C(=O)NC(C)CC)c(=O)c2c1 (configuration not stated)	0.7	1.4
Cc1sc2nc(-c3ccccc3Cl)n(CC(=O)c3ccc(Br)cc3)c(=O)c2c1C	-0.2	.
Cc1cc(F)ccc1S(=O)(=O)Nc1ccccc1C(=O)N1CCCCC1	.	-0.3
Cc1cc2c(cc3c(SCC(=O)NCc4ccco4)nncn32)o1	0.46	-0.7
O=C(O)C(c1ccccc1)(c1ccccc1)c1ccccc1	0.32	.
Cc1cc(C)c(N=C=Nc2c(C)cc(C)cc2C)c(C)c1	0.3	.
O=C(CCCSc1cccc[n+]1[O-])c1ccc(F)cc1	.	0.15
CCCn1c(Nc2ccccc2)nc2ccccc21	1.3	-0.55
COc1ccc(NC(=S)NCCCO)c(OC)c1	0.52	0.75
CN(C)CC(C)(C)NS(=O)(=O)c1ccccc1	-0.17	-0.55
N#Cc1c(Nc2ccc(Cl)cc2)n[nH]c1N	.	0.75
CN1CC[n+]2cnc3ccccc3c21	95	0.1
Cc1cc(C(=O)O)c(Cl)nc1C	.	-0.3

Profiles from above. Values in the order: Ba CapD inh, AID504770
N#CC(C#N)=NNc1ccccc1OC(F)(F)F across the screens: -2.5, .
COc1ccc(NC(=O)C2CC(=O)N(CCc3ccc(Cl)cc3)C2)cc1 (configuration not stated) across the screens: -0.02, -0.9
N#Cc1c(Nc2ccc(Cl)cc2)n[nH]c1N across the screens: ., 0.75
Nc1nc(S(=O)(=O)c2ccccc2)c(Cl)s1 across the screens: 0.94, -0.95

Other compounds follow.
SMILES	Ba CapD inh	AID504770
CCN(CC)c1ccc2cc(C(=O)Nc3ccc(C)cc3)c(=N)oc2c1	-0.42	0.5
Cc1cc2nc3c(=O)n(Cc4ccccc4)c(=O)[nH]c3nc2cc1N	-0.33	.
CC1CCCC(C)N1C(=O)c1cc2c(s1)-c1ccccc1OC2 (configuration not stated)	-1.2	0.35
Cc1ccc2nc(N3CCN(C(=O)C4CC=CCC4C(=O)O)CC3)nc(-c3ccccc3)c2c1 (configuration not stated)	0.08	.
CCOc1cc(/C=C2\SC(=N)N(c3ccc(F)cc3)C2=O)cc(Cl)c1O	-0.83	.
CCCN1CCC(Nc2ccc3c(c2)CCC3)CC1	-0.01	0.45
COC(=O)Nc1nc2ccc(OC)cc2[nH]1	.	-1.2
Cc1onc(-c2c(Cl)cccc2Cl)c1C(=O)NCCSCc1c(F)cccc1Cl	0.58	.
NNC(=O)Cn1nnc(N2CCCC2)n1	-0.01	-0.2
CC(OC(=O)c1ccncc1)C(=O)Nc1cc(C(F)(F)F)ccc1Cl (configuration not stated)	0.61	-0.3
C/C(=N\n1cnnc1)c1ccc(-n2cnnn2)cc1	0.61	0.5
COc1cccc(CCOC(=O)NCCc2cccc(Cl)c2)c1	-0.38	.
CCNC(=S)Nc1ccc(F)cc1	-0.12	-0.1
C=CCSc1ncc(/C=N/Nc2ccc(Cl)cc2)n1Cc1ccccc1	1.2	.
COc1ccc(C=Nc2ccc3[nH]ncc3c2)c(O)c1	.	-1
COCCN1C(=O)c2ccccc2C(C(=O)NCc2cc(OC)ccc2OC)C1c1c[nH]c2ccccc12 (configuration not stated)	-0.01	1.1
Cc1ccc(S(=O)(=O)NC(=O)c2nnc(-c3ccc(F)cc3)o2)cc1	.	0.2
O=C(NCc1cccs1)c1c(F)cccc1NC(=O)C(c1ccccc1)C1CCCC1 (configuration not stated)	-0.045	.
CO[C@@]1(NC(=O)CSCC#N)C(=O)N2C(C(=O)O)=C(CSc3nnnn3C)CS[C@@H]21	112	.
Cn1nc(C(F)(F)F)c(-c2ccccc2)c1NC(=O)C1C2C=CC(C2)C1C(=O)O (configuration not stated)	0.055	-0.45
CCOC(=O)c1sc2nc(C)nc(NCc3ccc4c(c3)OCO4)c2c1C	9.3	.
CN(C)c1nc(SCC#N)nc(N(C)C)n1	-0.91	-0.2
O=C(c1ccc(-c2cccs2)s1)c1ccc(F)cc1F	7.3	-0.55
COc1ccc2c(c1)-c1cc(Cl)ccc1S(=O)(=O)N2S(=O)(=O)c1ccccc1	0.05	.
CC(=O)N/N=C/c1cc2ccccc2nc1Cl	.	-0.7
O=C(OCc1ccc(Cl)cc1)c1cc(=O)c2ccccc2o1	-0.74	2.1
O=C(CS(=O)(=O)c1cccc(Cl)c1)Nc1cccc(C(F)(F)F)c1	0.32	.
COc1ccc(C2=C(CC(=O)O)C(=O)CC2)cc1	53	-0.6
CCC(Oc1ccccc1-c1nnc(-c2ccccc2)o1)C(=O)N1CCCC1 (configuration not stated)	9.2	-0.6
CCOC(=O)c1c(NC(=O)CSc2nnc(CNC(=O)c3ccc([N+](=O)[O-])cc3)n2C)sc2c1CCCCC2	-0.17	.
O=C(O)CCn1c(=S)n(CCC(=O)O)c2ccccc21	.	0.6
CC1CN(C(=O)c2ccc(C(=O)c3ccccc3)cc2)CC(C)O1 (configuration not stated)	0.35	-0.75
CCOC(=O)c1sc2nc(CC(=O)OC)nc(N3CCN(c4ccc(OC)cc4)CC3)c2c1C	-1.1	.
Cc1nc(C(=O)NC2(O)C(=O)c3ccccc3C2=O)cs1	-0.55	-0.6
Cc1ccc(CNS(=O)(=O)c2c(C)noc2C)cc1	-0.32	-0.35
N#Cc1nccnc1Sc1cccs1	0.005	.
CN(Cc1ccccc1)C(=O)CCn1ccc2cc(S(=O)(=O)N3CCCCC3)ccc21	1.9	0.9
CC(C)(C)C(O)CN1C2=NCCN2c2ccccc21 (configuration not stated)	-0.7	.
O=C(Nc1ccc(C2=NCCO2)cc1)c1ccc(C(F)(F)F)cc1	1.3	-0.45
COc1nc2c(c(-c3cccs3)c1C#N)Cc1ccccc1-2	17	.
CON/C=N/c1nc2nccc(C(C)Oc3ccc(C(C)(C)C)cc3)n2n1 (configuration not stated)	0.11	.
Nc1ccc(CN2C(=O)c3ccccc3C2=O)cc1	.	-0.35
CCC(COC(=O)NNC(=O)c1ccc(-c2ccccc2)cc1)c1ccccc1 (configuration not stated)	9.9	.
CCOC(=O)C1=C(CSc2nc(-c3ccccc3)ccc2C#N)OC(N)=C(C#N)C1c1cccnc1 (configuration not stated)	2.2	0.5
Cn1c(=O)c2c(nc(N3CCN(c4ccccc4)CC3)n2CCSc2nnnn2-c2ccccc2)n(C)c1=O	.	-1.4
Cc1ccc2onc(CNC(=O)N3CCN(Cc4ccc5c(c4)OCO5)CC3)c2c1	0.06	-0.8
C=CCN(CC=C)C(=O)c1c(-c2ccccc2Cl)noc1C	.	2.4
CN(C)CC(C)(O)c1ccc(Br)cc1 (configuration not stated)	0.21	0
Cc1ccc(S(=O)(=O)Nc2cc3c(cc2N2CCOCC2)n(C)c(=O)c(=O)n3C)cc1	-1	0.7
CC(C)Oc1ccc(C2C(C(=O)C34CC5CC(CC(C5)C3)C4)N3c4ccccc4C=CC3C2(C#N)C#N)cc1 (configuration not stated)	1.2	.
O=C(NCCOC12CC3CC(CC(C3)C1)C2)c1cc2ccccc2oc1=O	23	-0.5
CON	-0.4	.
CCC(=O)Oc1ccc(NC(=S)NCCCO)cc1	-0.51	.
Cc1ccccc1-n1c(SCC(=O)NCCc2ccc(S(N)(=O)=O)cc2)nc2n[nH]c(C)c2c1=N	0.055	.
Cc1ccc(NC(=O)c2ccco2)c(NC(=O)COc2ccc(I)cc2)c1	-0.65	0.35
CCc1cccc(NC(=O)[C@@H]2CCCN2C2=NS(=O)(=O)c3ccccc32)c1	.	2
CCOC(=O)C1=C(O)/C(=C/c2cc(OC)c(O)c(OC)c2)SC1=Nc1ccccc1	0.45	.
O=C(NCC(c1ccc(Cl)cc1)N1CCOCC1)c1ccccc1 (configuration not stated)	0.025	1.1
CCCNc1nc2ccccn2c(=O)c1/C=C1\SC(=S)NC1=O	-0.92	0.25
Cn1ncc(Br)c1-c1cccc(NC(=O)COCC(=O)O)c1	0.28	-0.85
Cc1ccc(-n2c(=S)[nH]c3c(c2=O)C2(CCCCC2)Cc2ccccc2-3)cc1	-0.19	.

A portion of the library. The share of hits here may be higher or lower than overall.
